S aureus helic: S. aureus DNA helicase inhibition. purified S. aureus helicase, fluorescence unwinding assay; about half of the hits fall short of the stated cut. inhibition, %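 (tested at about 80 µM)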. actives 0.05% (n = 120,000). AID 485395;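 active = both duplicates at 50% or more, or one of them with a favoured structure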;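 note: 0% = mean of negative control wells and 100% = mean of positive control wells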
MgrA DNA FP: modulators of Staphylococcus aureus MgrA DNA binding; fluorescence polarization; inhibition, %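 (about 10 µg/mL by stock and volumes)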; actives 0.13% (n = 84,000);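 active = above 50% in either of two replicates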;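 note: 0% = protein plus DNA without compound and 100% = DNA alone without protein; higher means less MgrA bound to DNA so lower polarization; one replicate is shown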
* hit, by the source's call; / = no result given. Some of the compounds tested; rates above refer to the full screens.

SMILES | S aureus helic | MgrA DNA FP
COc1ccc(CNC(=O)CSC(=S)N2CCCC2)cc1 | -7.0 | /
O=c1ccc(-c2ccco2)nn1Cc1ccc(Cl)c(Cl)c1 | 2.0 | /
CC(Sc1ccccc1)C(=O)O (stereo not drawn) | 7.0 | /
COC(=O)c1c(C)nc(C)c(C(=O)OC)c1-c1ccsc1 | / | 2.8
O=C(CCNc1ccccc1)c1cccs1 | / | -3.3
c1ccc2c(CSc3nnc(-c4ccc5c(c4)OCO5)o3)cccc2c1 | 28.0 | /
Cc1noc(C)c1/C=N/NC(=S)Nc1ccc(SC(F)F)cc1 | 1.0 | /
O=C1c2ccccc2C(=O)N1Cc1nc2ccccc2c(=O)n1CCCn1ccnc1 | -1.0 | /
CCOC(=O)c1cnn(-c2nc(-n3ncc(C(=O)OCC)c3N)c3c4c(sc3n2)COC(C)(C)C4)c1N | 13.0 | 0.8
COc1ccc2cccc(OC)c2n1 | 7.0 | /
Cc1cc(=O)n2c([nH]c3ccccc32)c1C(=O)O | 5.0 | 0.5
CN(C)c1cccc(C(=O)OCC(=O)N(C)c2ccccc2)c1 | -2.0 | 2.7

Single records, as listed above. Order of screens: S aureus helic | MgrA DNA FP
O=C1c2ccccc2C(=O)N1Cc1nc2ccccc2c(=O)n1CCCn1ccnc1 reads -1.0 | /
Cc1cc(=O)n2c([nH]c3ccccc32)c1C(=O)O reads 5.0 | 0.5
COC(=O)c1c(C)nc(C)c(C(=O)OC)c1-c1ccsc1 reads / | 2.8
COc1ccc(CNC(=O)CSC(=S)N2CCCC2)cc1 reads -7.0 | /
CCOC(=O)c1cnn(-c2nc(-n3ncc(C(=O)OCC)c3N)c3c4c(sc3n2)COC(C)(C)C4)c1N reads 13.0 | 0.8

(next part)
SMILES | S aureus helic | MgrA DNA FP
CCN1CCN(Cc2c(O)ccc3ccccc23)CC1 | -6.0 | /
CC(=O)Nc1nc2ccccc2n1Cc1ccccc1Cl | / | 3.7
COc1cc2c(cc1OC)C1=C(C#N)CCC(=O)N1CC2 | 13.0 | 0.4
Cc1ccc(C)c2[nH]c(=O)c(C3NC(=O)c4ccccc4N3)cc12 (stereo not drawn) | -2.0 | 6.3
CN(C(=O)Cn1ncc2c(=O)oc3ccccc3c21)c1ccccc1 | 11.0 | -0.1
O=C1Nc2ccccc2SC1C(C(=O)O)c1ccccc1 (stereo not drawn) | / | -1.4
CC1(c2ccccc2)NC(=O)N(CC(O)c2ccccc2)C1=O (stereo not drawn) | -7.0 | /
CCC(C)NC(=O)Cn1c(=O)/c(=C\c2ccc(F)cc2)s/c1=C\C(=O)c1ccco1 (stereo not drawn) | -34.0 | /
O=C(NC1=NCCS1)c1ccc2c(c1)C(=O)N(Cc1ccncc1)C2=O | 9.0 | /
O=C(NC(=O)c1csnn1)Nc1ccc(F)c(Cl)c1 | 16.0 | /
Cc1cc(C(=O)CN(C)C2CCN(C)CC2)c(C)n1-c1c(C)n(C)n(-c2ccccc2)c1=O | 14.0 | /
C=CCSc1nc2c(c(=O)n(C)c(=O)n2C)n1Cc1cccc(C)c1 | 5.0 | /
CCn1c(=O)cc(OCC(=O)NC2CCCC2)c2ccccc21 | 6.0 | -1.7
CCN(CC)S(=O)(=O)c1ccc(/C=C/C(=O)OCC(=O)Nc2cccnc2Cl)cc1 | -3.0 | /
CC(=O)Nc1ccc(NC(=O)CSc2ccccc2C)cc1 | -17.0 | /
O=C(O)CCOc1ccc(F)cc1F | / | -2.2
Cc1cc(C)n(-c2nc(N3CCOCC3)nc(N3CCOCC3)n2)n1 | / | -1.9
O=C(CN1CCCC1)N1CCN(C(=O)c2ccccc2)C1 | -3.0 | -1.7
CNC(=O)NC(=O)CSc1ncc(C(F)(F)F)cc1Cl | -9.0 | /
Cc1nc2ccc(-c3nc4ccc(NC(=O)c5cccs5)cc4[nH]3)cc2[nH]1 | 16.0 | -3.8
Cc1cc(C)nc(NC(c2ccco2)c2ccc3cccnc3c2O)n1 (stereo not drawn) | / | 1.2
O=C(/C=C/c1ccco1)OC1CCOC1=O (stereo not drawn) | 13.0 | /
Cc1cc(N2CC(C)CC(C)C2)n2c(nc3ccccc32)c1C#N (stereo not drawn) | -26.0 | /
O=[N+]([O-])c1ccc2oc(C(O)c3ccc(F)cc3)cc2c1 (stereo not drawn) | / | -2.7
O=C(/C=c1/[nH]c(=O)/c(=C/c2ccccc2C(F)(F)F)s1)c1ccco1 | -34.0 | /
O=C(NCc1ccccc1)C1CCN(S(=O)(=O)c2cccs2)CC1 | -23.0 | /
O=C(NC(=S)Nc1cccc(O)c1)c1ccccc1 | 20.0 | /
COC(=O)C1CCN(C(=O)COc2ccccc2)CC1 | 6.0 | 1.2
CCOC(=O)c1cc(-c2ccc(F)cc2)n(CC(=O)N2CCc3ccccc3C2)c1C | 0.0 | 0.2
COC(=O)c1ccc2occ(C(=O)c3ccc(F)cc3)c2c1 | -19.0 | /
Nc1nnc(SCC(O)CO)s1 (stereo not drawn) | 9.0 | 1.5
COc1ccccc1-c1c(C#N)c(C)nc(C)c1C#N | / | 1.9
COc1ccccc1OCC(=O)NCCO | 5.0 | 0.9
NC(=O)CN1CCCCCC1=O | 15.0 | -0.9
CCOC(=O)c1ccc2[nH]cc(C(=O)OCC)c(=O)c2c1 | -18.0 | /
O=C(CSc1nnc(Cc2ccccc2)o1)NCc1ccco1 | -9.0 | /
CN(Cc1cn(-c2ccccc2)nc1-c1ccc(F)cc1)C(=O)CCC(=O)O | -6.0 | /
CCCCn1c(-c2ccc(N)cc2)nc2ccccc21 | 8.0 | -0.1
Cc1nn(-c2cccc(Cl)c2)nc1C(=O)N1CCN(C(=O)C2CC2)CC1 | -5.0 | /
O=C(Nc1ccc(-c2cn3ccsc3n2)cc1)C1CCCC1 | -2.0 | /
COc1ccc(OC)c(C2C(C(=O)Nc3ccccn3)=C(C)NC3=C2C(=O)CCC3)c1 (stereo not drawn) | 9.0 | -0.2
CC(C)(C)NC(=O)C1=CC=CN2CCS(=O)(=O)N=C12 | 16.0 | /
Cc1ccn2cc(CSc3ncccn3)nc2c1 | -16.0 | /
Cc1cc(/C=C2\CCC(C3CCCC3)C2=O)c(C)n1-c1ccccc1 (stereo not drawn) | 5.0 | 0.5
NC(Cc1ccccc1F)C(=O)O (stereo not drawn) | -1.0 | -0.7
Cc1ccc(C(=O)c2cnc3cc4c(cc3c2N2CCCCC2)OCO4)cc1 | -37.0 | /
O=C(Nc1cc(C(F)(F)F)ccc1N1CCc2ccccc2C1)c1ccccc1 | / | 2.1
N=c1nc(-c2ccccc2)ccn1O | 4.0 | 10.1

Some of these compounds in order of formula weight, low to high.
SMILES | S aureus helic | MgrA DNA FP
CC(C)(C)NC(=O)C1=CC=CN2CCS(=O)(=O)N=C12 | 16.0 | /
O=C(Nc1ccc(-c2cn3ccsc3n2)cc1)C1CCCC1 | -2.0 | /
Cc1nn(-c2cccc(Cl)c2)nc1C(=O)N1CCN(C(=O)C2CC2)CC1 | -5.0 | /
O=C(Nc1cc(C(F)(F)F)ccc1N1CCc2ccccc2C1)c1ccccc1 | / | 2.1

(list continues)
SMILES | S aureus helic | MgrA DNA FP
O=C(CN1C(=O)C2CC=CCC2C1=O)Nc1ccccc1C(=O)Nc1ccccc1 (stereo not drawn) | 5.0 | /
Fc1ccc(Cn2cccc2C2=NC(c3ccccc3)CO2)cc1 (stereo not drawn) | 11.0 | 0.4
N#C/C(=C\c1ccsc1)S(=O)(=O)c1ccc(C(F)(F)F)cn1 | / | -0.1
O=C1Nc2ccccc2/C1=C\c1cn(CC(=O)N2CCCC2)c2ccccc12 | 2.0 | -1.1
Cc1cc(C)nc(-n2ncc3c2CCCC3=O)n1 | -29.0 | /
O=C(O)C1=CSCCO1 | 7.0 | /
NNC(=O)c1csc(COc2ccccc2Cl)n1 | 20.0 | /
CC(=O)N1CCN(C(=O)C2C3CC4CC(C3)CC2C4)CC1 (stereo not drawn) | 8.0 | /
COC(=O)Cc1coc2cc(C)c(Cl)cc12 | -13.0 | 2.0
COC(=O)c1sc(Br)c(Br)c1O | / | -1.7
CCOC(=O)c1c(/N=C/C2C(=O)NC(=O)NC2=O)sc2c1CCCCC2 | -87.0 | /
C/C(=N\OCC(=O)Nc1ccc2c(c1)OCO2)c1cc2ccccc2o1 | 8.0 | /
Nc1ncc2c(n1)CC(c1ccco1)CC2=O (stereo not drawn) | 2.0 | -2.1
Cc1sc2c(c1C)C(O)=C(C(=O)Nc1ccc(Cl)cc1)S(=O)(=O)N2C | / | 0.0
C=CCn1cnc2c(NCc3ccccc3)ncnc21 | -4.0 | 0.9
NCC1CC2C=CC1C2 (stereo not drawn) | 9.0 | 0.8
O=C(Cc1cccc2ccccc12)Nc1ccc(I)cc1 | / | 0.3
O=S(c1cccc(C(F)(F)F)c1)c1ccc2nnc(Cl)n2n1 (stereo not drawn) | / | 4.2
O=C(Nc1ccccc1-c1nc2ccccc2s1)c1cccc2ccccc12 | / | 1.0
O=C(CCc1nc2cccnc2n1-c1ccccc1)NCc1ccccc1 | 4.0 | -0.3
COc1ccc(OC)c(NC(=O)CCN2CCN(c3ccccc3F)CC2)c1 | -3.0 | -0.9
O=C(OCc1ccc(Br)cc1)c1ccc(Br)o1 | 1.0 | -0.9
COc1cccc(-c2nn(C)c3sc(C(=O)N4CCCc5ccccc54)cc23)c1 | 14.0 | 5.0
COc1cc(C2C3=C(CC(C)(C)CC3=O)Nc3ccccc3N2C(C)=O)ccc1OCc1ccccc1 (stereo not drawn) | / | -0.5
Cn1cc(C=C2C(=O)CC(C)(C)CC2=O)c2ccccc21 | 21.0 | 2.0
O=c1[nH]cnc2c1nnn2Cc1ccc(F)cc1 | 9.0 | -0.8
Cc1cccc(OC(C)c2nc3ccccc3[nH]2)c1 (stereo not drawn) | -7.0 | -0.8
Cc1cccn2c(=O)c(/C=C(\C#N)C(=O)NCCc3ccccc3)c(NCCOCCO)nc12 | -18.0 | /
O=C(NCC12CC3CC(CC(C3)C1)C2)c1nc2ncccn2n1 | 15.0 | 3.8
CCc1ccc(NS(=O)(=O)c2ccc(-n3cccn3)cc2)cc1 | 31.0 | /
Cc1ccc(C(C(=O)NCc2ccccc2)N(C(=O)c2snc(C(N)=O)c2N)c2ccc3c(c2)OCCO3)o1 (stereo not drawn) | 11.0 | -1.4
CCC1CN(C(=O)Nc2ccc(OC)cc2)c2ccccc2S1 (stereo not drawn) | 14.0 | /
Cc1cc(/C=N\Nc2ccc([N+](=O)[O-])cc2)c2c(C)ccc(C(C)C)cc1-2 | / | -0.2
Cc1nnc(SCC(=O)N2CCC(C)CC2)c2nn(-c3ccccc3)c(C)c12 | -14.0 | /
CCCn1c(=O)c2ccccc2n2c(SCC(=O)NC(=O)NC)nnc12 | -1.0 | /
O=C(NC1CC1)c1c(Cl)cccc1Cl | 7.0 | 1.8
O=S(=O)(c1ccc(Oc2ccc(-c3nnco3)cc2)nc1)N1CCC(Cc2ccccc2)CC1 | 4.0 | /
Cc1oc(-c2ccccc2)nc1C(=O)Nc1ccccc1C(=O)Nc1ccc2c(c1)OCO2 | -19.0 | /
Cc1nnc(SCC(=O)Nc2ccc3c(c2)OCCO3)s1 | 20.0 | /
O=C(Nc1ccccc1)Nc1ccc(Oc2cccnc2)nc1 | 23.0 | /
Cn1c(CSCC(=O)Nc2ccccc2)n[nH]c1=S | / | 1.6
Cc1ccc2cc(CCNC(=O)c3ccco3)c(=O)[nH]c2c1 | -11.0 | /
CN1C(=O)/C(=C\c2ccc(C(=O)N3CCC4(CC3)OCCO4)cc2)SC1=S | -3.0 | /
CCC1(C)CC(CC(=O)OC(C)CN(C)C)(c2ccccc2)CCO1 (stereo not drawn) | 5.0 | -4.0
Cc1ccc(NC(=O)NC(C)c2c(-n3cccc3)sc(C)c2C)cc1 (stereo not drawn) | 6.0 | /
O=C(Nc1ccc2oc(-c3ccc(Br)cc3)nc2c1)c1ccc([N+](=O)[O-])cc1 | / | 6.1
N#Cc1cc2sc3nc4ccccc4n3c2cc1C#N | -1.0 | 1.8
Nc1nonc1NC(=O)CSc1ncccc1C(=O)O | 4.0 | -4.5
CSC1=N/C(=C\c2ccc(Cl)cc2)C(=O)N1CCc1c[nH]c2ccccc12 | / | -0.5
O=C(Cn1c2c(c(-c3ccccc3Cl)cc1=O)CCC2)NC1CC1 | 6.0 | 0.9
CS(C)=C1C(=O)NC(=O)N(c2ccccc2F)C1=O | 12.0 | -1.0
CC(=O)Nc1ncc(Cc2cccc(Cl)c2)s1 | 11.0 | /
CC1(c2ccccc2)Nc2ccccc2-c2nc3ccccc3n21 (stereo not drawn) | -4.0 | 0.8
O=C(/C=C/c1ccccc1)Nc1nnc(-c2ccco2)o1 | -18.0 | /
COc1ccccc1OCc1nnc(SCCN2CCOCC2)o1 | 6.0 | -2.2
CC(=O)Nc1ccc(C(=O)OCC(=O)N2CC3(C)CC2CC(C)(C)C3)cc1 (stereo not drawn) | -3.0 | 0.2
O=C(CSc1nnc(COc2ccccc2Cl)o1)NC(=O)NC1CCCC1 | 7.0 | /
CC1CCC(C(C)C)C(=O)/C1=C/c1ccc(N)cc1 (stereo not drawn) | 9.0 | 0.9
COc1cccc2cc(C(=O)Nc3cccc(Cn4cccn4)c3)c(=O)oc12 | 5.0 | 0.1
CCOC(=O)C1=C(C)N=c2s/c(=C/c3ccccc3OC)c(=O)n2C1c1ccc(OC(C)=O)c(OC)c1 (stereo not drawn) | / | -2.0
O=C(NNc1c(Cl)cc(Cl)cc1Cl)c1ccc(=O)[nH]n1 | -12.0 | /
COC(=O)CCc1nc2cc(Cl)ccc2n(Cc2ccccc2)c1=O | 11.0 | -1.8
N#CCN(CC#N)C(=O)c1cc(-c2ccccc2)nc2ccccc12 | 5.0 | -4.4
